GLA inh pH 4.5: inhibitors of human alpha-galactosidase A at pH 4.5 | AID 1467 | activity change, negative = inhibition, % at 105 µM | purified enzyme, 4-MU-alpha-Gal fluorescence, pH 4.5 | 230,000 tested, under 10 active; inconclusive = small, poorly fitted or top-dose-only inhibition, or a rising curve; inactive = flat fitted curve, though single readings scatter; no compound was filed as active;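 further: 0% = full activity with enzyme and -100% = basal without enzyme; dose as in the result columns while the protocol names 77 µM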
Rango complex inh: inhibitors of Rango-importin beta complex formation; Q14974; Rango CFP/YFP FRET sensor + importin beta, 45 min; Potency, µM (series often up to 92.2 µM), without a hit: top-dose inhibition of complex formation; 340,000 compounds, 0.031% hits; AID 540263; active = rising FRET ratio curve, often small or poorly fitted; inconclusive = mostly compound fluorescence or quenching in the first reads; inactive = flat curves in all reads;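 further: potency means the concentration at half of the fitted maximal effect; 0% = DMSO wells and 100% = buffer wells lacking importin beta; nearly all actives have a fitted effect of over 15% in size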
Target sequence (Q14974 whole entry, looked up): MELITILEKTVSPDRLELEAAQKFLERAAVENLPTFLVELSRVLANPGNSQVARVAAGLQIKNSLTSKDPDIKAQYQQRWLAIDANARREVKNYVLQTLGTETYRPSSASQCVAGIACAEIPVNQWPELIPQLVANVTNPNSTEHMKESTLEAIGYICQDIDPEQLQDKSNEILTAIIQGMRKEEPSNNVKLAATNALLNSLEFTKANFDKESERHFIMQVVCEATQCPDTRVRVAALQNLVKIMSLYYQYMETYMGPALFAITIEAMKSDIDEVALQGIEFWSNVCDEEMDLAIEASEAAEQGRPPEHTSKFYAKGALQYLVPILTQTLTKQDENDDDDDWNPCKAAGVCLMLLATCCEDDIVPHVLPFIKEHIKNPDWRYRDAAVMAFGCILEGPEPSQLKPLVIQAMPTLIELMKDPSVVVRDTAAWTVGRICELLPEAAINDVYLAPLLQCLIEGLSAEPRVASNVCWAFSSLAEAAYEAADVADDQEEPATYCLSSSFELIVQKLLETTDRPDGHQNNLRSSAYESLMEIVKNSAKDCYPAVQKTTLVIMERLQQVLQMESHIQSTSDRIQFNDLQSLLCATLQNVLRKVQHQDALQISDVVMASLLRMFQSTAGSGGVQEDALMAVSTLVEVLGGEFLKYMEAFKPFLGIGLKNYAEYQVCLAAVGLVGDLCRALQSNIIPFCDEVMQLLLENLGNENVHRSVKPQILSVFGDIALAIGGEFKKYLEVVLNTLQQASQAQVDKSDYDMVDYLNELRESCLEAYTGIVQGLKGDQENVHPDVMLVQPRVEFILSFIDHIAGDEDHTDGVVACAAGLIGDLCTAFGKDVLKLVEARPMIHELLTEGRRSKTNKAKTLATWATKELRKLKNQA
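FRET biosensor (snurportin 1 IBB flanked by EYFP and cerulean), 50 nM, with compound 5 min, then 0.125 microM importin beta in PBS, 1 mM DTT, 0.02% Tween-20, 0.1% BSA. CFP/YFP ratio read after 45 min at room temperature; pre-read flags interference.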
Rango dissoc inh: inhibitors of RanGTP-induced Rango-importin beta complex dissociation; O95149+P62826; 340,000 compounds, 0.071% hits; AID 540253; Biochemical FRET Rango-importin beta, RanGTP-induced dissociation; Potency, µM (highest dose often 46.1 µM), for the others: top-dose activity change, negative = inhibition; active means falling FRET ratio curve, often poorly fitted, with flat reads before Ran was added; inconclusive means other falling curves, or compound fluorescence or quenching; inactive means flat or rising ratio curve;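 further: potency means the concentration at half of the fitted maximal effect; % of control where 0% means no effect; nearly all actives have a fitted effect of over 45% in size; -100% = wells without RanGTP and RCC1; the record marks most hits as doubtful in a second field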
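Rango/importin beta premix (0.1/0.25 uM final), PBS + 1 mM DTT + 0.02% Tween-20 + 0.1% BSA; cpd 5 min RT; FRET pre-read; + RanGTP-RCC1 (0.6 uM Ran, 2 mM GTP, 0.2 uM RCC1); 45 min RT; FRET post-read, ex 430, em 486/530 nm.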
miR-21 FLuc: raises the signal of a miR-21 reporter; HeLa miR-21 FLuc reporter, luciferase, 48 h; 340,000 tested, under 10 active; Potency, µM (series often up to 38.3 µM), without a hit: top-dose reporter change, positive = more light; active = well fitted rising curve with a large enough effect; inconclusive = small, poorly fitted or top-dose-only effect; inactive = no such curve, though single readings can be large or run the other way;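 further: % of control where 0% means no effect; miR-21 action dims this reporter so a rising signal means less miR-21 action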
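HeLa cells endogenously expressing miR-21, stably carrying CMV-driven firefly luciferase with a downstream miR-21 binding site, 2000 cells/well. Titrations up to approximately 40 uM, 48 hours; luciferase luminescence read.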
The depositor's hits bear a star; ? = inconclusive; nt = no result given; & = joins results of further samples; [ ] = another dose, or the depositor's remark. These rows are one share of the data, so the mix of outcomes need not match the whole.

GLA inh pH 4.5 | Rango complex inh | Rango dissoc inh | miR-21 FLuc | Structure
nt | -0.3% | 11% | -4% | O=C(NCCN1CCCCC1)Nc1ccc([N+](=O)[O-])cc1
nt | -3.5% | 1% | -47% | CC(C)n1cnc2cc(NC(=O)c3ccco3)ccc21
nt | ? | -11% | -1% | COc1ccc(CNC(=O)CN2CCN(c3cccc(C)c3C)CC2)cc1
9 | 0.2% | -6% | -3% | COc1ccc(Cl)cc1N1C(=O)CC(N2CCc3ccccc32)C1=O (stereo not drawn)
-9 | ? | -10% | 3% | COC(=O)C1CCN(C(=O)COc2cc3sc(C)nc3c3sccc23)CC1
nt | -0.2% | -7% | 20%&19% | CC(=O)N1CCCc2cc(S(=O)(=O)N3CCCC(C(=O)Nc4cccc(F)c4)C3)ccc21 (stereo not drawn)
nt | 1.4% | 4% | -3% | CC(=O)c1c(Cl)nc2ccc(Br)cc2c1-c1ccccc1
5 | -0.1% | 1% | -25% | Cc1cccc(Nc2ncnc(N)n2)c1
-8 | ? | -6% | -2% | O=C(Cc1nc2ccccc2[nH]1)NCc1ccco1
3 | 2.6% | 16% | -2% | CN(C)C(=O)N1CCN(C(=O)N2CCOCC2)CC1
3 | -3.9% | 12% | ? | O=C(CCCN1C(=O)/C(=C/c2ccccc2Cl)SC1=S)NNC(=O)c1ccccc1
-4 | 1.4% | -7% | -17% | O=C(COc1ccccc1)Nc1ccc(Cl)c(-c2nc3ncccc3o2)c1
nt | 0.3% | -1% | nt | N#Cc1ccccc1NS(=O)(=O)c1cc2c3c(c1)CCC(=O)N3CCC2
7 | -0.2% | -27% | 0% | CCOC(=O)c1ccc(NC(=O)CC2Sc3ncnn3C2=O)cc1 (stereo not drawn)
5 | 0.1% | -7% | 0% | O=C(NCN1CCN(CCO)CC1)c1cnccn1
nt | -6.4% | 21% | nt | Cc1ccc(NC(=O)CN2C(=O)C(=O)N(C3CCCC3)C2=O)c(Cl)c1
-12 | -1.1% | 12% | 9% | Cc1ccc(S(=O)(=O)N2CCC(=O)N(C(COCc3cccc(C)c3)Cc3ccccc3)CC2)cc1 (stereo not drawn)
-4 | -2.8% | -10% | -7% | O=C(CCCn1ncn2c(cc3occc32)c1=O)N1CCc2ccccc2C1
5 | 1.5% | -12% | -4% | COC(=O)C1C/C(=N\NS(=O)(=O)c2ccc(C)cc2)c2ccsc2C1 (stereo not drawn)
-8 | -1.0% | -5% | 5% | C=C1CCN([C@@H](C)C(=O)OCc2ccc(C)cc2)S(=O)(=O)c2ccccc21
nt | -2.5% | 16% | -10% | COc1ccc(C(=O)Nc2ccccc2C(=O)NCc2ccco2)cc1
-4 | 4.2% | 0% | 0% | O=C(c1ccncc1)N1CCN(C(=O)c2ccco2)CC1
9 | -2.2% | 8% | 2% | CCOc1ccc(C(=O)Nc2ccc(N3CCN(S(C)(=O)=O)CC3)cc2)cc1[N+](=O)[O-]
nt | -0.7% | 4% | 8% | CCOc1ccc(NC(=O)c2c(NC(=O)CNCCN3CCOCC3)sc3c2CCC3)cc1
2 | -0.1% | 0% | -16% | CCOCC(=O)Nc1cccc(SC)c1
nt | 1.3% | -5% | -2% | CC(=O)c1sc(NC(C)c2ccccc2)nc1C (stereo not drawn)
-17 | -1.0% | 1% | 0% | N#Cc1cc([N+](=O)[O-])ccc1NC(=O)COC(=O)CC1CCCC1
-1 | -3.3% | 15% | -12% | CCCNC(=O)NC(=O)CSc1ccc(C)cc1C
7 | -3.5% | -2% | -1% | COCC1CCN(C(=O)CCc2nnc(CCCCc3ccccc3)o2)CC1
nt | 3.1% | 7% | 0% | COc1ccc(CNC(=O)CCCCCNC(=O)N2CCn3c2nc2ccccc23)cc1

(continued)
GLA inh pH 4.5 | Rango complex inh | Rango dissoc inh | miR-21 FLuc | Structure
nt | -1.1% | -3% | -2% | CCN(CC)C(=O)Cn1c(=O)n(CCC(=O)Nc2ccc(F)cc2)c(=O)c2sccc21
-1 | 3.0% | -3% | -4% | O=C(NCCc1ccc(Cl)cc1)C1CCN(c2cnccn2)CC1
nt | -2.6% | 1% | -26% | Cn1cc(CC(=O)NCc2ccc(F)cc2)c2ccccc21
nt | -1.5% | 24% | nt | COc1ccc(C2/C=C\CC(NS(=O)(=O)c3ccc(C)cc3)CC(=O)N2Cc2ccccc2F)cc1 (stereo not drawn)
3 | -0.4% | 4% | 0% | CC1CCN(c2ccc(S(=O)(=O)NC3=NCCCCC3)cc2[N+](=O)[O-])CC1
-2 | 1.3% | -6% | ? | O=C(NCc1cccnc1)/C(=C/c1ccc(-c2cccc(Cl)c2)o1)S(=O)(=O)c1ccccc1
nt | -0.1% | 11% | nt | O=C(N/N=C/c1ccncc1)c1cccc(S(=O)(=O)N2CCCC2)c1
-1 | -0.5% | 18% | -2% | C/C=N/NC(=O)CCCC(=O)N/N=C/C
-2 | -0.4% | 6% | 6%&-8% | Cc1nc2c(-c3ccc(F)cc3)c(C)nn2c(C)c1CCC(=O)N1CCN(c2ccccc2)CC1
-3 | 0.0% | ? | -2% | CN(C)C(=O)c1cccn(Cc2ccc(C(F)(F)F)cc2)c1=O
nt | 0.2% | 11% | -20% | CC(C)c1ccc(/C=C2\SC(=O)N(CC(=O)NC3CCS(=O)(=O)C3)C2=O)cc1 (stereo not drawn)
nt | 2.6% | -14% | -1% | CC(C)Oc1ccc(/C(O)=C2/C(=O)C(=O)N(CCN3CCNCC3)C2c2ccc(C(C)C)cc2)cc1 (stereo not drawn)
nt | -0.7% | -15% | nt | COc1ccc(-c2nnc(SCC(=O)Nc3cccnc3Cl)n2C)cc1
10 | -2.3% | 14% | -5% | O=C(Nc1cccc(O)c1)c1ccc(Br)c(S(=O)(=O)N2CCCCC2)c1
nt | 0.0% | -10% | 7% | Cc1ccccc1C(=O)NCCCNC(=O)c1ccco1
5 | -4.7% | 0% | -14% | O=C(COc1cccc2cccnc12)NCc1cccs1
-5 | ? | -21% | 6% | O=C(N/N=C/c1ccccc1O)C1SCCCS1
nt | -2.4% | 0% | nt | CC(=O)c1c(O)cc(C)n(Cc2ccccc2)c1=O
-1 | 2.8% | -11% | 0% | Cc1ccccc1Cn1cc(NC(=O)c2cc(C3CC3)on2)cn1
-21 | 2.2% | 7% | -3% | COc1ccc(CCNC(=O)c2nnn(-c3ccccc3OC)c2N)cc1OC
8 | ? | -7% | 1% | Cc1cc(C)c2nc(C(F)(F)F)nc(N3CCN(C(=O)c4ccco4)CC3)c2c1
nt | -0.2% | 3% | 0% | O=C(COc1cc2oc(=O)c3c(c2cc1Cl)CCC3)NCC(O)c1ccccc1 (stereo not drawn)
-12 | -0.2% | -13% | -3% | Cc1c(N=Nc2c(-c3ccc([N+](=O)[O-])cc3)[nH]n(C(N)=S)c2=O)cccc1[N+](=O)[O-]
nt | -0.1% | -12% | -6% | Nc1ccccc1Nc1c(F)c(F)nc(F)c1Cl
9 | -0.3% | 0% | -1% | CCOC(=O)C(NCc1ccccc1)(NC(=O)c1ccccc1)C(F)(F)F (stereo not drawn)
nt | -3.6% | 12% | -26% | O=C(Nc1ccc(F)cc1F)c1ccc2c(c1)OCCO2
nt | ? | ? | 1% | COc1cccc(N=C2NC(=O)/C(=C/c3cc([N+](=O)[O-])ccc3O)S2)c1
0 | 1.0% | 16% | -5% | COc1ccc(-c2nnc(NC(=O)CSc3ccc(Cl)cc3)s2)cc1OC
nt | 2.8% | 1% | nt | CC(O)[C@H]1CN=C(N)N1CC(C)(C)C (stereo partly drawn)
4[21.1 µM] | 0.2% | 0% | 0%&1% | COC(=O)C(C)Sc1ccc2nnc(CCNS(=O)(=O)c3ccc(C)cc3)n2n1 (stereo not drawn)

(next part)
GLA inh pH 4.5 | Rango complex inh | Rango dissoc inh | miR-21 FLuc | Structure
0 | -0.4% | 0% | -5% | COc1ccc(S(=O)(=O)n2ccc(C)n2)cc1C
-1 | -2.7% | 8% | -3% | CCCCN(C(=O)CSc1nnc(-c2ccc(OC)cc2)n1C(C)C)c1c(N)n(Cc2ccccc2)c(=O)[nH]c1=O
nt | -3.2% | 2% | -3% | Cc1ccc(S(=O)(=O)NC(=O)Nc2c(C)cccc2C)cc1
-7 | -0.1% | 28% | -5% | COc1ccc(OC)c(C(c2nnnn2CC2CCCO2)N2CCN(C3CCCC3)CC2)c1 (stereo not drawn)
nt | -1.7% | -1% | nt | O=C(NCC(c1ccco1)N1CCc2ccccc21)c1ccccc1Br (stereo not drawn)
5 | -1.6% | 12% | -2% | O=C(CNC(=O)Cc1ccccc1)NCC(=O)OCC(=O)c1ccc(F)cc1
3 | -2.6% | -15% | -16% | COc1cc(CNc2ccc(CNc3ncn[nH]3)cc2)ccc1OCc1ccccc1
-15 | ? | ? | -2% | COC(=O)C1=C2SC(C)C(=O)N2C(N)=C(C#N)C1c1cc(OC)c(OC)c(OC)c1 (stereo not drawn)
nt | -0.2% | 15% | 6% | CC(C)Oc1ccc(CN2CCCC(CO)(Cc3ccccc3)C2)cc1CO (stereo not drawn)
7 | 0.4% | 25% | 0% | Cc1ccc(C(=O)OCC(=O)NCc2ccco2)s1
3 | 0.6% | 1% | -1% | Nc1nc(SCC(=O)Nc2ccccc2Sc2ccc(Cl)cc2)n[nH]1
-2 | 2.3% | 0% | 1% | COC(=O)COc1ccccc1/C=C1/NC(=O)NC1=O
nt | 0.4% | -11% | 2% | Cc1cccc(-c2nc(CN3CCN(Cc4cccc(F)c4)CC3)c(C)o2)c1
-1 | -0.6% | -3% | -23% | O=C(/C=C/c1ccccc1)OCc1cncs1
1 | 3.9% | 8% | 12% | CC1(C)c2ccccc2N2CC(=O)N[C@@]21/C=C/C=C/c1ccccc1
-7 | 4.8% | -1% | 2% | CC(=O)N1CCN(CC(=O)Nc2ccc(SC(F)F)cc2)CC1
5 | -0.2% | 23% | 0% | CCc1nnc(NC(=O)CSc2nnc(-c3ccoc3C)n2-c2cccc(C)c2)s1
-4 | -0.8% | 6% | -4% | COC(=O)c1cc2c(cc1NC(=O)CSCCc1ccccn1)OCO2
-4 | -0.2% | -14% | -58% | Nc1nc2ccc(C(=O)Nc3ccccc3)cc2s1
nt | -0.1% | -17% | 10% | C=CCn1c(=O)c2c(nc3n2CCCN3CCc2ccc(OC)c(OC)c2)n(C)c1=O
-3 | -0.1% | -8% | -9% | Cc1ccc(S(=O)(=O)NC(=O)NCc2ccc(Cl)cc2)cc1
2 | -0.4% | -5% | 0% | Cc1ccc(C2CC(=O)C(C=NCCN3CCN(C(=S)Nc4ccccc4)CC3)=C(O)C2)cc1 (stereo not drawn)
nt | 1.5% | 22% | nt | CCCCCCCN1CCN=C1Nc1ccccc1
7 | 1.2% | 1% | -2% | COc1cc(CN2CCCC(CCC(=O)NCc3ccc(C)o3)C2)cc2c1OCO2 (stereo not drawn)
nt | -0.5% | -26% | nt | CCCn1c(N)c(C(=O)CSc2nnc3ccccn23)c(=O)n(C)c1=O
-16 | -2.1% | 17% | -5% | CCCC(c1nnnn1C1CCCC1)N1CCN(C(=O)c2ccco2)CC1 (stereo not drawn)
0 | -2.2% | 2% | 2% | CCOC(=O)C1CCN(c2ncnc3c2cnn3-c2ccccc2)CC1
16 | 0.7% | -9% | 12% | Cc1ccc(C)c(NC(=O)CN(C)C(=O)c2nn(C)c(=O)c3ccccc23)c1
nt | -3.7% | -21% | nt | Cc1cc(C)c(NC(=O)CNC(=O)COC(=O)CNC(=O)c2ccc(Cl)cc2Cl)c(C)c1
nt | 0.9% | -12% | nt | Cc1ccccc1C(=O)OCC(=O)Nc1cccc(S(=O)(=O)NC2=NCCC2)c1

Bioassay records as filed in PubChem BioAssay.
